# StopGo reporter – FMDV 2A StopGo reporter, luciferase signal | human cells with a luciferase reporter of 2A StopGo recoding; control for the full effect not named in the record | Potency, µM (titrated, usually from 57.9 µM), for the others: top-dose signal change, negative = less light | actives 1.2% (n = 410,000); active = well fitted falling curve with a large enough effect; inconclusive = small, poorly fitted or top-dose-only effect; inactive = no such curve, though single readings can be large or run the other way; tested in HEK293T cells; note: % is set by controls: 0 for no effect and ±100 for the full control effect; nearly all actives have a fitted effect of over 45% in size; luciferase light after 4 h
# NS1 inh – inhibitors of influenza NS1 protein function | Potency, µM (highest dose often 46.1 µM), for the others: at the top dose activity, positive = more growth | S. cerevisiae slowed by influenza A NS1, growth recovery by OD600 | actives 0.4% (n = 270,000); note: actives are rising curves; nearly all actives have a fitted effect of over 50% in size
#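 A cell-based growth assay was used: compounds that relieve NS1-induced slow growth of budding yeast raise OD600. Assay medium was yeast nitrogen base with ammonium sulphate and -URA supplement, pH 6.0, with 2% galactose.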
# Cruzain inh Det – blocks cruzain activity in presence of Triton detergent. P25779. purified cruzain, Z-FR-AMC fluorescence, 0.01% Triton. Potency, µM, without a hit: max response, negative = inhibition, actives largely listed as inhibitors. actives 0.43% (n = 200,000). AID 1478; active = well fitted curve in the direction sought with a large enough effect; inconclusive = small, poorly fitted or top-dose-only effect, or another doubt; inactive = no such curve, though single readings can be large; an effect the other way counts as inactive or inconclusive;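 note: plate controls were neutral wells for no effect and buffer without enzyme for full effect; nearly all actives have a fitted effect of over 40% in size; top concentration of the series not given in the record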
# Target sequence (P25779 123-467 limits assumed): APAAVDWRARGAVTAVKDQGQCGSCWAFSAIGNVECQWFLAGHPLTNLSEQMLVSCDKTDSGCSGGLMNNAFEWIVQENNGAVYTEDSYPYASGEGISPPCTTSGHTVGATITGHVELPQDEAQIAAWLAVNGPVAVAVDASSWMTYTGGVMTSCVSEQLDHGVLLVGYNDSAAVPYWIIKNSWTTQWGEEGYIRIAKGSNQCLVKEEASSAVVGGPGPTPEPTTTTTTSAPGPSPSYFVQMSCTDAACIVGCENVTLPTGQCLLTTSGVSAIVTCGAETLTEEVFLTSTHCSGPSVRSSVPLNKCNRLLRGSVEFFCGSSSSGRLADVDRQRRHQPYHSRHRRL
#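 In this qHTS format, compounds are incubated with 1.5 nM cruzain for 15 min at room temperature before 2 uM Z-FR-AMC is added. Release of AMC is followed at 360/450 nm, and progress is taken as the 60 s fluorescence difference.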
# SARS PLpro yeast – SARS-CoV PLP inhibition in yeast; S. cerevisiae expressing SARS-CoV PLpro, growth rescue; control for the full effect not named in the record; Potency, µM (highest dose often 32.9 µM), for inactives: at the highest dose activity, positive = growth rescue; actives 0.19% (n = 330,000); AID 485353; note: 0% is about no effect; nearly all actives have a fitted effect of over 55% in size; growth read by luminescence after 48 h
# MARV entry inh – blocks Marburg virus binding to or entry into cells | Marburg virus pseudotyped entry inhibition, cell reporter; control for the full effect not named in the record; about a third of the inactives were read at about 46 µM | AID 540276 | actives 1.8% (n = 300,000) | Potency, µM (titrated, usually from 37.8 µM), for the others: top-dose activity change, negative = inhibition, actives largely listed as inhibitors; active = well fitted inhibition curve with a large enough effect; inconclusive = small, poorly fitted or top-dose-only effect, or effect the other way; inactive = flat fitted curve, though single readings scatter; tested in HEK293 cells; about a fifth of its hits are not listed in these tables; note: % is set by controls: 0 for no effect and ±100 for the full control effect; luciferase read-out
# RE007 growth inh – less growth of the S. pombe RE007 Vpr strain; S. pombe RE007 Vpr strain, BacTiter-Glo ATP luminescence, 24 h; control for the full effect not named in the record; Potency, µM (doses to about 92.2 µM), for the others: at the top dose activity change, negative = less growth; actives 0.21% (n = 360,000); active = well fitted falling curve with a large enough effect; inconclusive = small, poorly fitted or top-dose-only effect; inactive = no such curve, though single readings can be large or run the other way;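 note: % is set by controls: 0 for no effect and ±100 for the full control effect; nearly all actives have a fitted effect of over 50% in size; the assay follows cell death caused by Vpr and the record does not say whether a fall means rescue or toxicity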
#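 Fission yeast strain RE007, carrying one chromosomally integrated HIV-1 vpr copy, was seeded at OD 0.01 in PMG+AL medium with 23 nL pinned compound. After 24 h at 30 °C and 99% humidity, viability was read by BacTiter-Glo luminescence.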
# Cruzain noTriton – cruzain (T. cruzi) inhibition without detergent; AID 1476; actives 2.3% (n = 200,000); Potency, µM, inactives show max response, negative = inhibition, usual class: inhibitors; P25779; purified cruzain, Z-FR-AMC fluorescence, no detergent; active = well fitted curve in the direction sought with a large enough effect; inconclusive = small, poorly fitted or top-dose-only effect, or another doubt; inactive = no such curve, though single readings can be large; an effect the other way counts as inactive or inconclusive;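 note: plate controls were enzyme without inhibitor for no effect and buffer without enzyme for full effect; nearly all actives have a fitted effect of over 40% in size; top concentration of the series not given in the record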
#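 Purified cruzain at 1.5 nM, pre-incubated 15 min with compound at room temperature in 100 mM sodium acetate pH 5.5, 5 mM DTT, 0.00005% Triton X-100. Reaction started with 2 uM Z-FR-AMC; AMC fluorescence increase over 60 s gives rate.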
# LASV entry inh – blocks Lassa virus binding to or entry into cells; actives 1.2% (n = 300,000); Potency, µM (doses to about 37.9 µM), inactives show top-dose activity change, negative = inhibition, hits mostly inhibitors; Lassa virus pseudotype entry inhibition, cell reporter; control for the full effect not named in the record; AID 540256; active means well fitted inhibition curve with a large enough effect; inconclusive means small, poorly fitted or top-dose-only effect, or effect the other way; inactive means flat fitted curve, though single readings scatter; tested in HEK293 cells; note: % is set by controls: 0 for no effect and ±100 for the full control effect; nearly all actives have a fitted effect of over 50% in size; luciferase read-out
# The depositor's hits bear a star; u = inconclusive; x = not tested or not shown; & = joins results of further samples; [ ] = dose if it differs, or a comment. Unless noted, calls come from the whole dose curve; as a rule, active means well fitted rising curve with a large enough effect; inconclusive means small, poorly fitted or top-dose-only effect; inactive means no such curve, though single readings can be large or run the other way. Potency is the fitted concentration of half-maximal effect.
SMILES,StopGo reporter,NS1 inh,Cruzain inh Det,SARS PLpro yeast,MARV entry inh,RE007 growth inh,Cruzain noTriton,LASV entry inh
COc1ccc(Br)cc1CN1CCN(C(=O)c2cccc(F)c2)CC1,u,-10%,x,0%,3%[46.1 µM],-2%,x,-11%[46.1 µM]
CCCn1c(SCC(=O)N2CCCC2)nc2c1c(=O)n(C)c(=O)n2C,-11%,0%,4.3%,9%,-2%,-7%,-6%,-13%
COc1ccccc1/C=N/NC(=O)c1cccc(NC(=O)c2ccccc2Cl)c1,-7%,-34%,x,-1%,-19%[46.1 µM],9%,x,-16%
COC(=O)Cc1c(C)c2ccc3c(c2oc1=O)CN(Cc1ccc(Cl)cc1)CO3,-10%,x,-1.1%,x,-3%[46.1 µM],x,-10%,14%[46.1 µM]
CN(C)c1ccnc(Oc2ccccc2)c1C#N,3%,2%,13%,-1%,23%,u,1%,1%
Cc1ccc(S(=O)(=O)N2CCN(C(=O)COC(=O)COc3cccc4c3OC(C)(C)C4)CC2)cc1,0%,x,x,-4%,17%,4%,x,5%
Cc1cc(C(=O)NC2CC(C)(C)Cc3c2cnn3-c2ccc(F)cc2)no1 (stereo unspecified),24%,-14%,x,3%,u,2%,x,-30%[46.1 µM]
O=C(CN1CCCc2ccccc21)NCc1ccc2c(c1)OCO2,11%,-18%,-1.2%,6%,3%,4%,-2%,6%
Cn1cc(S(=O)(=O)CC(=O)Nc2ccc3c(c2)OCO3)c2ccccc21,46%[activator],-22%,-3.2%,30%,13%,6%,-2%,10%
CCN(CC)C(=O)Cn1cc(SCC(=O)Nc2cc(OC)ccc2OC)c2ccccc21,-26%,x,-4.6%,x,x,x,u,-5%[46.1 µM]
Cc1ccc(O)c(N/C=C/C(=O)c2ccc(F)cc2)c1,45%[activator],-32%,x,-3%,u,-18%,x,-25%[46.1 µM]
CCOC(=O)c1c(S(=O)(=O)N(C)Cc2ccco2)c(C)n(C)c1C,51%[activator],3%,x,1%,11%[46.1 µM],10%,x,31%[46.1 µM]
COc1ccc(NC(=O)c2cc(S(=O)(=O)N3CCOCC3)cn2C)c(OC)c1,-25%,0%,x,3%,x,-7%,x,x
Cc1ccc(CNc2nc3ccccc3s2)s1,-30%,0%,-0.5%,-6%,u,-10%,-10%,6.3µM*
CCc1ccc(-c2cc(C)no2)cc1S(=O)(=O)NCCCN1CCN(c2ccccc2)CC1,u,-15%,x,0%,x,-3%,x,x
O=C(O)CSC1=NC(=Nc2cccc(Cl)c2)C2(CCCCC2)N1c1ccccc1,0%,1%,-1.5%,10%,9%,24%,1%,14%
N#Cc1cnc2ncnn2c1-c1ccccc1,10%,11%,-3.0%,19%,18%,-5%,-9%,1%
CC1=C(C(=O)Nc2ccccc2)C(C(C)C)n2nc(SCc3ccccc3C)nc2N1 (stereo unspecified),2%,x,0.1%,x,0%[46.1 µM],x,u,-4%[46.1 µM]
Cc1ccc(CN2CCSc3ccc(C(=O)NCC4CCCO4)cc32)cc1 (stereo unspecified),25%,-29%,x,1%,x,1%,x,x
c1ccc2oc(-c3ccc(Nc4nc(N5CCOCC5)nc(N5CCOCC5)n4)cc3)nc2c1,0%,x,x,x,u,2%,x,u
O=C(Nc1ccccc1)c1ccc(Br)o1,63%[activator],-21%,1.6%&-1.2%,-44%,x,-6%,-5%&-5%,u
COc1ccccc1N(CC(=O)NCC1CCCO1)C(=O)CNS(=O)(=O)c1ccccc1 (stereo unspecified),-5%,1%,x,0%,x,24%,x,x
COc1ccc(CNc2nc3nc(C)cc(C)n3n2)cc1,38%[activator],-6%,4.9%,3%,0%,-3%,-3%,7%
N#CC1=C(C2CC2)CC(c2ccccc2)C(C#N)=C1N (stereo unspecified),u,-7%,-3.5%,11%,-6%,-2%,-1%,-4%
CC1(C)CN=C(Nc2ccc(F)c(Cl)c2)S1,23%,3%,x,-1%,x,-6%,x,x
CCc1ccc(-c2nc(CN3CCC(C(=O)N4CCN(c5ccccc5)CC4)CC3)c(C)o2)cc1,u,7%,0.6%,2%,u,25%,0%,u
Nc1ccc(S(=O)(=O)Nc2nc3ccccc3o2)cc1,49%[activator],-3%,x,0%,x,12%,x,x
CCc1cccc(NC(=O)C(Cc2ccccc2)NS(=O)(=O)c2ccc3c(c2)oc(=O)n3C)c1 (stereo unspecified),11%,x,3.9%,x,3%[46.1 µM],x,0%,-7%[46.1 µM]
CN(C)CCCC(C)(O)C(Cc1ccccc1)c1ccccc1 (stereo unspecified),-19%,-6%,1.0%,-20%,u,-1%,0%,-7%
Cn1c(CSCc2ccccc2)n[nH]c1=S,-21%,16%,1.8%,-2%,1%,5%,-9%,1%

# As a working copy, some entries already given.
SMILES,StopGo reporter,NS1 inh,Cruzain inh Det,SARS PLpro yeast,MARV entry inh,RE007 growth inh,Cruzain noTriton,LASV entry inh
COc1ccc(Br)cc1CN1CCN(C(=O)c2cccc(F)c2)CC1,u,-10%,x,0%,3%[46.1 µM],-2%,x,-11%[46.1 µM]
CCCn1c(SCC(=O)N2CCCC2)nc2c1c(=O)n(C)c(=O)n2C,-11%,0%,4.3%,9%,-2%,-7%,-6%,-13%
COc1ccccc1/C=N/NC(=O)c1cccc(NC(=O)c2ccccc2Cl)c1,-7%,-34%,x,-1%,-19%[46.1 µM],9%,x,-16%
COC(=O)Cc1c(C)c2ccc3c(c2oc1=O)CN(Cc1ccc(Cl)cc1)CO3,-10%,x,-1.1%,x,-3%[46.1 µM],x,-10%,14%[46.1 µM]
CN(C)c1ccnc(Oc2ccccc2)c1C#N,3%,2%,13%,-1%,23%,u,1%,1%
Cc1ccc(S(=O)(=O)N2CCN(C(=O)COC(=O)COc3cccc4c3OC(C)(C)C4)CC2)cc1,0%,x,x,-4%,17%,4%,x,5%
Cc1cc(C(=O)NC2CC(C)(C)Cc3c2cnn3-c2ccc(F)cc2)no1 (stereo unspecified),24%,-14%,x,3%,u,2%,x,-30%[46.1 µM]

# The list goes on:
SMILES,StopGo reporter,NS1 inh,Cruzain inh Det,SARS PLpro yeast,MARV entry inh,RE007 growth inh,Cruzain noTriton,LASV entry inh
O=C(NCc1ccc2c(c1)OCO2)C(=O)NCC1OCCCN1S(=O)(=O)c1cc(F)ccc1F (stereo unspecified),-16%,7%,x,10%,-9%,5%,x,0%
CS(=O)CCC(NS(=O)(=O)c1ccccc1)C(=O)O (stereo unspecified),x,-1%,1.7%,9%,8%,9%,-7%,11%
O=C(O)C1=C[C@@H](O)[C@@H](O)[C@H](O)C1,-20%,x,1.0%,x,x,10%,-3%,x
Cc1ccc(C)c(N2C(=O)CS/C2=N\NC(=O)c2ccccc2Cl)c1,x,4%,3.4%,u,-1%,2%,4%,6%
Cc1ccccc1NC(=O)COC(=O)/C=C/c1cccc(C(F)(F)F)c1,-18%,u,0.2%,20%,-1%,-1%,25µM*,3%
O=C(NC1CCCC1)C(c1ccc(F)cc1)N(Cc1ccccc1Cl)C(=O)CCl (stereo unspecified),28µM*,-3%,1.3%,-8%,u,-8%,-14%,-15%
CCCCn1c(C)c(C(=O)OCC)c2c(CN3CCCC3)c(O)ccc21,-28%,4%,x,2%,x,-12%,x,x
CCc1cc(=O)oc2c(C)c(OC(C)C(=O)NC3CC(C)(C)NC(C)(C)C3)ccc12 (stereo unspecified),-1%,-14%,x,-12%,x,-9%,x,x
COc1ccc(/C=N/NC(=O)CCCOc2ccc(Cl)cc2Cl)cc1,-4%,2%,-12%,-31%,-4%,-15%,18%,u
COc1cc(C)nc(N2CCCC(C(=O)NC3CCC(C)CC3)C2)n1 (stereo unspecified),x,u,3.0%,2%,1%,11%,-3%,21%
CS(=O)(=O)N(CC(=O)N1CCCC1)c1cc(Cl)c(Cl)cc1Cl,6%,3%,-2.5%,9%,-14%,0%,3%,u
Cc1csc(NC(=O)C(F)(F)F)n1,-1%,17%,-4.0%,8%,u,0%,-16%,-17%
Cc1ccc(C(=O)Nc2nnc(C3=COCCO3)o2)cc1C,8%,1%,x,-4%,u,-1%,x,-4%
CC(=O)Nc1ccc(OC(=O)N2CCCC2)cc1,11%,-12%,x,3%,x,3%,x,x
CCOc1ccccc1C1C(C#N)=C(N)N(N(C)C)C2=C1C(=O)CCC2 (stereo unspecified),3%,0%,x,2%,3%,2%,x,-6%
CC(=O)OCCc1c(C)nc2nc[nH]n2c1=O,4%,6%,5.7%,-3%,17%[46.1 µM],-9%,17%,-3%
Cn1c(-c2ccc(F)cc2)cnc1NCc1cccc(F)c1,8%,-20%,2.9%,-10%,-3%[46.1 µM],-22%,-6%,2%
O=C(Nc1ccc2c(c1)OCO2)N1CCN(C(=O)C2CCCO2)CC1 (stereo unspecified),29%,8%,1.4%,2%,u,0%,1%,u
COc1ccc(C(=O)N/N=C(\C)c2ccc(NC(=O)Cc3ccccc3)cc2)c(OC)c1,19%,19%,x,2%,u,7%,x,1%
CCCc1cc(=O)n2nc(N3CCC(C(=O)N4CCN(c5ccc(OC)cc5)CC4)CC3)sc2n1,u,-10%,x,2%,x,-9%,x,x
O=C(OCc1nc2ccsc2c(=O)[nH]1)c1ccc(Cl)s1,-4%,x,x,-7%,8%,-10%,x,13%
O=[N+]([O-])c1ccc(N2CCN(c3ccc(O)cc3)CC2)c(Cl)c1,0%,0%,-15%,-2%,u,0%,u,-5%
Cc1cccc(N2CCN(C(=O)Cc3cn(C)c4ccccc34)CC2)c1C,0%,-85%,-4.8%,-15%,u,-10%,-7%,-13%
COc1ccc(-n2c(-c3ccccc3F)nc3c(cnn3-c3ccc(C)cc3)c2=O)cc1,-25%,x,-15%,x,u,x,-18%,u

# Assay outcomes deposited in PubChem by National Center for Advancing Translational Sciences (NCATS).
